LASV entry inh – blocks Lassa virus binding to or entry into cells; Lassa virus pseudotype entry inhibition, cell reporter; control for the full effect not named in the record; Potency, µM (top dose mostly 37.9 µM), for inactives: at the top dose activity change, negative = inhibition, most hits filed as inhibitors; actives 1.2% (n = 300,000); active means well fitted inhibition curve with a large enough effect; inconclusive means small, poorly fitted or top-dose-only effect, or effect the other way; inactive means flat fitted curve, though single readings scatter; tested in HEK293 cells; note: % is set by controls: 0 for no effect and ±100 for the full control effect; nearly all actives have a fitted effect of over 50% in size; luciferase read-out
SARS PLP yeast – blocks SARS-CoV papain-like protease in a yeast assay; S. cerevisiae expressing SARS-CoV PLpro, growth rescue; control for the full effect not named in the record; Potency, µM (doses to about 32.9 µM), for inactives: at the top dose activity, positive = growth rescue; actives 0.19% (n = 330,000); AID 485353; active means well fitted rising curve with a large enough effect; inconclusive means small, poorly fitted or top-dose-only effect; inactive means no such curve, though single readings can be large or run the other way; note: 0% is about no effect; nearly all actives have a fitted effect of over 55% in size; growth read by luminescence after 48 h
Marburg entry inh – blocks Marburg virus binding to or entry into cells; Marburg virus pseudotyped entry inhibition, cell reporter; control for the full effect not named in the record; about a third of the inactives were read at about 46 µM; Potency, µM (series often up to 37.8 µM), without a hit: at the top dose activity change, negative = inhibition, most hits filed as inhibitors; actives 1.8% (n = 300,000); AID 540276; active = well fitted inhibition curve with a large enough effect; inconclusive = small, poorly fitted or top-dose-only effect, or effect the other way; inactive = flat fitted curve, though single readings scatter; tested in HEK293 cells; about a fifth of its hits are not listed in these tables; note: % is set by controls: 0 for no effect and ±100 for the full control effect; luciferase read-out
Cruzain Triton – cruzain (T. cruzi) inhibition with detergent. P25779. actives 0.43% (n = 200,000). purified cruzain, Z-FR-AMC fluorescence, 0.01% Triton. AID 1478. Potency, µM, without a hit: max response, negative = inhibition, hits mostly inhibitors;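 note: plate controls were neutral wells for no effect and buffer without enzyme for full effect; nearly all actives have a fitted effect of over 40% in size; top concentration of the series not given in the record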
Target sequence (P25779 123-467 limits assumed): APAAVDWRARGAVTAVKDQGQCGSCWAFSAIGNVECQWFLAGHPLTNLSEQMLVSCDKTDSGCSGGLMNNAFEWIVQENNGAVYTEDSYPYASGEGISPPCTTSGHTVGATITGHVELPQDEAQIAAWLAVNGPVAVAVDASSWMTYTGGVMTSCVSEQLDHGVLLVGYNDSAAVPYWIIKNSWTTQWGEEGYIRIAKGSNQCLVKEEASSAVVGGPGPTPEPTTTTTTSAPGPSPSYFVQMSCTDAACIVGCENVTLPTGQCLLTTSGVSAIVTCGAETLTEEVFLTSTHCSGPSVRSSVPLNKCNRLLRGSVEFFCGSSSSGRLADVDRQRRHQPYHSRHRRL
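Enzyme 1.5 nM, Z-FR-AMC 2 uM, NaOAc 100 mM pH 5.5, DTT 5 mM, Triton X-100 0.01%; 15 min RT compound preincubation; kinetic ex360/em450, 60 s delta.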
StopGo reporter – FMDV 2A StopGo reporter, luciferase signal. human cells with a luciferase reporter of 2A StopGo recoding; control for the full effect not named in the record. Potency, µM (doses to about 57.9 µM), for the others: at the highest dose signal change, negative = less light. actives 1.2% (n = 410,000). AID 1159524; active = well fitted falling curve with a large enough effect; inconclusive = small, poorly fitted or top-dose-only effect; inactive = no such curve, though single readings can be large or run the other way; tested in HEK293T cells; note: % is set by controls: 0 for no effect and ±100 for the full control effect; nearly all actives have a fitted effect of over 45% in size; luciferase light after 4 h
RE007 growth inh – less growth of the S. pombe RE007 Vpr strain | actives 0.21% (n = 360,000) | S. pombe RE007 Vpr strain, BacTiter-Glo ATP luminescence, 24 h; control for the full effect not named in the record | Potency, µM (series often up to 92.2 µM), inactives show top-dose activity change, negative = less growth; active = well fitted falling curve with a large enough effect; inconclusive = small, poorly fitted or top-dose-only effect; inactive = no such curve, though single readings can be large or run the other way;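 note: % is set by controls: 0 for no effect and ±100 for the full control effect; nearly all actives have a fitted effect of over 50% in size; the assay follows cell death caused by Vpr and the record does not say whether a fall means rescue or toxicity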
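Fission yeast RE007 carrying one integrated HIV-1 vpr copy, seeded at OD 0.01 in PMG+AL medium with 23 nL pinned compound. Grown 24 h at 30 degrees; viability read by BacTiter-Glo luminescence after 5 min.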
NS1 inh – influenza NS1 inhibition. S. cerevisiae slowed by influenza A NS1, growth recovery by OD600. Potency, µM (top dose mostly 46.1 µM), for inactives: top-dose activity, positive = more growth. actives 0.4% (n = 270,000). AID 2326; active means well fitted rising curve with a large enough effect; inconclusive means small, poorly fitted or top-dose-only effect; inactive means no such curve, though single readings can be large or run the other way; note: nearly all actives have a fitted effect of over 50% in size
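Compounds were scored for reversing the slow growth caused by influenza A NS1 in S. cerevisiae, measured by optical density at 600 nm. Assay medium contained 2% galactose at pH 6.0; NS1-free yeast of the same strain were the positive control.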
Cruzain inh noDet – inhibitors of Trypanosoma cruzi cruzain without detergent; purified cruzain, Z-FR-AMC fluorescence, no detergent; Potency, µM, inactives show max response, negative = inhibition, most hits filed as inhibitors; actives 2.3% (n = 200,000); AID 1476;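 note: plate controls were enzyme without inhibitor for no effect and buffer without enzyme for full effect; nearly all actives have a fitted effect of over 40% in size; top concentration of the series not given in the record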
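Detergent-free condition (0.00005% Triton X-100) in acetate buffer pH 5.5 with DTT. 1.5 nM enzyme and compound were pre-mixed 15 min, then 2 uM Z-FR-AMC substrate added; reaction progress from fluorescence change between first and third reads (60 s).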
* marks the source's active call; other numbers are inactive results; & = joins results of further samples; [ ] = dose if it differs, or a comment. Unless noted, calls come from the whole dose curve; as a rule, active = well fitted curve in the direction sought with a large enough effect; inconclusive = small, poorly fitted or top-dose-only effect, or another doubt; inactive = no such curve, though single readings can be large; an effect the other way counts as inactive or inconclusive. Potency is the fitted concentration of half-maximal effect.

Screening Nc1c2c(nc3ccccc13)N(c1ccccc1)CC2 returned LASV entry inh 17%, SARS PLP yeast 0%, Marburg entry inh -5%&-5%, Cruzain Triton -2.6%, StopGo reporter 0%, RE007 growth inh -3%, NS1 inh -8% and Cruzain inh noDet -21%.
CC(=O)Oc1ccc(/C=c2\sc3ncnn3c2=O)cc1 was read as LASV entry inh -6%, SARS PLP yeast 3%, Marburg entry inh -2%, Cruzain Triton 2.3%, StopGo reporter -13%, RE007 growth inh -8%, NS1 inh -67% and Cruzain inh noDet 28%.
For CN(CC(=O)Nc1ccc(Cl)c(C(F)(F)F)c1)C(=O)c1cnccn1 the results were LASV entry inh 3%, SARS PLP yeast -5%, Marburg entry inh 7%, StopGo reporter -28% and RE007 growth inh -1%.
Screening COc1ccc2cc(OC)c(C(=O)N3CCOCC3)cc2c1 returned LASV entry inh -2%, SARS PLP yeast 0%, Marburg entry inh 2%[46.1 µM], StopGo reporter 5%, RE007 growth inh 16% and NS1 inh 1%.
Cc1c(O)ccc2c(CN3CCN(C/C=C/c4ccccc4)CC3)cc(=O)oc12 was read as LASV entry inh inconclusive, SARS PLP yeast 0%, Marburg entry inh 8.9µM*, StopGo reporter inconclusive, RE007 growth inh -7% and NS1 inh 0%.
`Cc1ccc(NS(=O)(=O)c2ccccc2F)cc1S(=O)(=O)N1CCCCCC1` gave LASV entry inh 8%, SARS PLP yeast -2%, Marburg entry inh -20%, StopGo reporter 7% and RE007 growth inh 7%.
`COc1cc(Cl)c(NS(=O)(=O)c2ccc(-c3cnc(C4CC4)o3)cc2)c(OC)c1` gave LASV entry inh inconclusive, Cruzain Triton -3.7%, StopGo reporter inconclusive and Cruzain inh noDet 6%.
Screening Cc1cc(OCc2nn[nH]n2)c2c3c(c(=O)oc2c1)CCC3 returned LASV entry inh 11%, SARS PLP yeast -1%, Marburg entry inh 5%, Cruzain Triton -15%, StopGo reporter 3%, RE007 growth inh -17%, NS1 inh 7% and Cruzain inh noDet 10%.
CCC1CCc2sc(C(=O)OCC(=O)N(CCOC)c3c(N)n(Cc4ccccc4)c(=O)[nH]c3=O)cc2C1 (stereo not given) was read as LASV entry inh -22%, SARS PLP yeast 1%, Marburg entry inh -9%, StopGo reporter -4% and RE007 growth inh 5%.
`CSc1nc2c(c(=O)n1-c1ccc(C)cc1)SCC2` gave LASV entry inh -14%, SARS PLP yeast 0%, Marburg entry inh -15%, Cruzain Triton -4.3%, StopGo reporter 4%, RE007 growth inh 12%, NS1 inh -5% and Cruzain inh noDet -15%.
`O=C1Nc2ccc3c(c2C1=Cc1cc2c(cc1Br)OCO2)OCO3` gave LASV entry inh inconclusive, Marburg entry inh inconclusive, StopGo reporter inconclusive and RE007 growth inh 12%.
For O=C(COc1ccc(F)cc1Br)N1CCN(c2ncccn2)CC1 the results were LASV entry inh -1%[46.1 µM], SARS PLP yeast -2%, Marburg entry inh 3%[46.1 µM], StopGo reporter 3% and RE007 growth inh 0%.
`COc1ccccc1NC(=O)Cn1cnc2sc(C(=O)Nc3ccc(OC)c(OC)c3)c(C)c2c1=O` gave SARS PLP yeast 0%, StopGo reporter inconclusive, RE007 growth inh 4% and NS1 inh 4%.
`CCC(=O)Nc1ccc(C(=O)CSc2nc3ccccc3[nH]2)cc1` gave LASV entry inh -8%, SARS PLP yeast -12%, Marburg entry inh 3%, Cruzain Triton -9.0%, StopGo reporter 10%, RE007 growth inh 1%, NS1 inh 10% and Cruzain inh noDet inconclusive.
For CC1CCCC(NC(=O)C2COc3ccccc3O2)C1C (stereo not given) the results were LASV entry inh 9%, SARS PLP yeast -7%, Marburg entry inh 2%, StopGo reporter -15% and RE007 growth inh 18%.
For Cc1occc1C(=O)N/N=C/c1cccs1 the results were LASV entry inh 2%, SARS PLP yeast -10%, Marburg entry inh 15%, Cruzain Triton 1.1%, RE007 growth inh -20%, NS1 inh -8% and Cruzain inh noDet 0%.
Cc1cccc2cc(CN(Cc3nnnn3Cc3ccccc3)C3CCCC3)c(=O)[nH]c12 was read as LASV entry inh inconclusive, SARS PLP yeast -1%, Marburg entry inh 16µM*, Cruzain Triton -0.8%, RE007 growth inh -16%, NS1 inh -32% and Cruzain inh noDet -15%.
`Cc1ccc(N2C(=O)N(CC(=O)Nc3cc(Cl)ccc3C)C(=O)C2C)cc1` (stereo not given) gave LASV entry inh inconclusive, SARS PLP yeast -1%, Marburg entry inh -15%, StopGo reporter -4% and RE007 growth inh -2%.
C=CCSc1nc2c(cc1C#N)CCC2 was read as LASV entry inh 2%, SARS PLP yeast 1%, Marburg entry inh 10%, Cruzain Triton 0.5%, StopGo reporter 19%, RE007 growth inh -7%, NS1 inh -41% and Cruzain inh noDet -10%.
Screening COc1ccc(C2CC23N=C(c2ccccc2)OC3=O)cc1 (stereo not given) returned LASV entry inh -16%, SARS PLP yeast -29%, Marburg entry inh inconclusive, Cruzain Triton inconclusive, StopGo reporter 22µM*, RE007 growth inh 24%, NS1 inh -13% and Cruzain inh noDet -15%.
Screening COCCNC(=O)CCn1c(=O)[nH]c2cc(OC)c(OC)cc2c1=O returned LASV entry inh 6%[46.1 µM], Marburg entry inh 9%[46.1 µM], Cruzain Triton -2.0%, StopGo reporter -17% and Cruzain inh noDet 1%.
For O=C(c1ccc([N+](=O)[O-])cc1[N+](=O)[O-])N1CCCC1 the results were LASV entry inh -11%[46.1 µM], SARS PLP yeast 0%, Marburg entry inh 1%[46.1 µM], StopGo reporter -16%, RE007 growth inh 6% and NS1 inh 2%.
For COc1cc(OC)c(S(=O)(=O)Nc2ccc(C(=O)O)cc2)cc1S(=O)(=O)Nc1ccc(C(=O)O)cc1 the results were LASV entry inh 10%[46.1 µM], SARS PLP yeast 2%, Marburg entry inh 13%[46.1 µM], StopGo reporter 6%, RE007 growth inh 5% and NS1 inh 4%.
CC(C)COCc1ccc(O)c2ncccc12 was read as LASV entry inh inconclusive, SARS PLP yeast -1%, Marburg entry inh inconclusive, StopGo reporter -15%, RE007 growth inh inconclusive and NS1 inh -36%.
For CCCOC(=O)c1c(NC(=O)CCCn2nc([N+](=O)[O-])c(Cl)c2C)sc(C(=O)OC)c1C the results were LASV entry inh 3%, SARS PLP yeast 1%, Marburg entry inh -14%, Cruzain Triton -3.1%, StopGo reporter -9%, RE007 growth inh -13%, NS1 inh 12% and Cruzain inh noDet 4%.
`CC(=O)Nc1ccc(S(=O)(=O)NCCC(=O)Nc2ccc(C)c(Cl)c2)cc1` gave LASV entry inh 3%, SARS PLP yeast 9%, Marburg entry inh 2%, Cruzain Triton -3.8%, StopGo reporter -6%, RE007 growth inh 14%, NS1 inh -5% and Cruzain inh noDet 12%.
For COc1ccc(CC2C(=O)NC(=O)N(c3ccccc3)C2=O)c(OC)c1 (stereo not given) the results were LASV entry inh 7%, SARS PLP yeast 5%, Marburg entry inh -1%, Cruzain Triton 2.5%, RE007 growth inh 5%, NS1 inh inconclusive and Cruzain inh noDet -9%.
`CN(C)S(=O)(=O)c1ccc(Cl)c(C(=O)Nc2ccc(S(=O)(=O)N3CCOCC3)cc2)c1` gave LASV entry inh 5%[46.1 µM], SARS PLP yeast -7%, Marburg entry inh 12%[46.1 µM], StopGo reporter 0%, RE007 growth inh -1% and NS1 inh -14%.
Screening Cc1sc2ncnc(SCC(=O)N(C(C)C)C(C)C)c2c1C returned LASV entry inh 3%, SARS PLP yeast 1%, Marburg entry inh 13%, StopGo reporter -4%, RE007 growth inh 6% and NS1 inh 0%.
CC(=O)N(C)c1ccc(NS(=O)(=O)c2cc(Cl)ccc2Cl)cc1 was read as LASV entry inh 5%[46.1 µM], SARS PLP yeast 1%, Marburg entry inh -9%[46.1 µM], StopGo reporter 33%[activator], RE007 growth inh 4% and NS1 inh 7%.
For Cc1cccc(CNC(=O)CCCN2C(=O)CCn3nc(-c4cn(C)c5ccccc45)cc32)c1 the results were LASV entry inh -20%[46.1 µM], Cruzain Triton -2.7%, StopGo reporter -23% and Cruzain inh noDet inconclusive.
Screening COc1cc(/C=N/NC(=O)c2ccccn2)ccc1OC(=O)c1ccccc1Br returned LASV entry inh inconclusive, SARS PLP yeast -3%, Marburg entry inh -6%, StopGo reporter -18%, RE007 growth inh -6% and NS1 inh -4%.
Screening COc1ccc(OC)c(S(=O)(=O)N2CCN(c3ccc(F)cc3)CC2)c1 returned SARS PLP yeast -8%, StopGo reporter 18%, RE007 growth inh 50% and NS1 inh -22%.
CCSc1nnc(-c2ccc(OC)cc2)o1 was read as LASV entry inh 3%, SARS PLP yeast -7%, Marburg entry inh -24%, Cruzain Triton 1.0%, StopGo reporter 39%[activator], RE007 growth inh -28%, NS1 inh -17% and Cruzain inh noDet -11%.
Screening COc1ccccc1NC(=O)CNC(=O)c1ccccc1 returned LASV entry inh -2%, SARS PLP yeast 0%, Marburg entry inh 22%, Cruzain Triton 1.6%, StopGo reporter 7%, RE007 growth inh 28%, NS1 inh 0% and Cruzain inh noDet 1%.
Screening COC(=O)c1ccc(COc2ccc(C=O)cc2OC)o1 returned LASV entry inh 30%, SARS PLP yeast 0%, Marburg entry inh 2%[46.1 µM], StopGo reporter 37%[activator], RE007 growth inh 13% and NS1 inh 9%.
For CC(=O)c1ccc(Nc2ccc(-c3ccccc3F)nn2)cc1 the results were LASV entry inh inconclusive, SARS PLP yeast -9%, Marburg entry inh inconclusive, StopGo reporter 13% and RE007 growth inh 10%.
Screening COCCNC(=O)CN1C(=O)COc2ccc(S(=O)(=O)N3CCCC3)cc21 returned LASV entry inh 0%[46.1 µM], Marburg entry inh inconclusive, Cruzain Triton 0.3%, StopGo reporter 5% and Cruzain inh noDet -12%.
`COc1ccccc1-n1c(-c2ccccc2F)nc2ccccc2c1=O` gave LASV entry inh -3%[46.1 µM], Marburg entry inh inconclusive, StopGo reporter -14% and RE007 growth inh 4%.
For O=S(=O)([O-])CCC[N+]1(CC#Cc2ccccc2)CCCCC1 the results were LASV entry inh -1%, SARS PLP yeast 3%, Marburg entry inh 2%, StopGo reporter 1% and RE007 growth inh -16%.

Screening data deposited in PubChem by National Center for Advancing Translational Sciences (NCATS).
